High-throughput results (PubChem BioAssay)
14-3-3 Bad inh = disrupts binding of bovine 14-3-3 zeta to phospho-Bad peptide. P63103. TR-FRET 14-3-3zeta/Dy647-pBad peptide displacement, 1 h. inhibition, % at 21.7 µM. 220,000 tested, 0.71% active. AID 781;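 active means inhibition above about 70%, limit read from the data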;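 further: 0% = full 14-3-3 plus peptide FRET controls and 100% = background without 14-3-3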
EBV gp42 block = blocks Epstein-Barr virus glycoprotein 42 binding | Q1HVG2 | Fluorescence polarization binding assay, mP read-out | inhibition, % (tested at 21.74 µM) | 220,000 tested, 0.42% active | AID 1085; in the data active means inhibition above about 50%
Target sequence (Q1HVG2 whole entry, looked up): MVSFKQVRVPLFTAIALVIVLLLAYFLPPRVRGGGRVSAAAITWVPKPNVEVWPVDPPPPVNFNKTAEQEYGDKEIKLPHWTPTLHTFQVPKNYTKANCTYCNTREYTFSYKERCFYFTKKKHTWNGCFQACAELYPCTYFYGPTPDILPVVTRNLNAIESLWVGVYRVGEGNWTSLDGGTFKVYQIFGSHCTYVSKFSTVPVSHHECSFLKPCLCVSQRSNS
NCF1 inh = p47phox (human) inhibition; AID 1274; p47phox/p22phox peptide binding, fluorescence polarization, 2 h; inhibition, % at 24.7 µM; 220,000 tested, 0.53% active;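 active means inhibition above about 30%, limit read from the data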;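 further: 0% = p47phox with labelled peptide and 100% = labelled peptide alone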
Tb hexokinase = T. brucei hexokinase 1 inhibition; recombinant TbHK1, G6PDH-coupled NADH A340; inhibition, % at 10 µM; 220,000 tested, 0.11% active;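 active means inhibition of 50% or more in the single-dose primary screen; inactive means inhibition below 50%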
Hck-Nef inh = inhibitors of human Hck kinase activated by Nef | P08631 | Recombinant Hck-YEEI plus Nef, Z-Lyte FRET kinase assay | inhibition, % at 20 µM | 220,000 tested, 0.68% active | AID 463187;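 active means Hck-Nef kinase inhibition above about 50%, limit read from the data; inactive means inhibition below that limit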;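 further: 0% = DMSO with Hck plus Nef and 100% = Hck alone without Nef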
Target sequence (P08631 whole entry, looked up): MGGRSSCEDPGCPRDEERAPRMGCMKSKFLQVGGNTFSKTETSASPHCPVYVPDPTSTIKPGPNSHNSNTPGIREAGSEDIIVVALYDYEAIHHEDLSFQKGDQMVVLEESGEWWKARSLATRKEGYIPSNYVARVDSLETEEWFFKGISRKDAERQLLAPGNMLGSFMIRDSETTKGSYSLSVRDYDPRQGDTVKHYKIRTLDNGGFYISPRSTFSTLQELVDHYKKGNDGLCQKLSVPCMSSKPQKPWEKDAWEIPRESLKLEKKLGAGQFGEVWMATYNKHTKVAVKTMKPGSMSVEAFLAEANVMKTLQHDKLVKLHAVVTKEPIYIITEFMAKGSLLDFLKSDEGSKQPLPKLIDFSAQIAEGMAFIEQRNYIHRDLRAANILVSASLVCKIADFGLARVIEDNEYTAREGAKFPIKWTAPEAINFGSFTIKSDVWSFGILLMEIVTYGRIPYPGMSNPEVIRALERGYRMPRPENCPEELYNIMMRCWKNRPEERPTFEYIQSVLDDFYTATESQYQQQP
zVAD death inh = blocks zVAD induced death of L929 cells. L929 zVAD necroptosis rescue, ATP luminescence, 24 h; with zVAD 60 µM. viability rescue, % at 10 µM. 220,000 tested, 0.38% active;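 active means activation, scaled between plate controls, above about 75%, limit read from the data; inactive means activation under that limit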;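 further: 0% = zVAD with DMSO and 100% = DMSO alone without zVAD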
Mdm2 ligase inh = blocks human Mdm2 ubiquitin ligase activity. Q00987. cell-based MDM2 ubiquitination luciferase reporter, 2 h; 0 = plate control, 100 = twice control, blank-subtracted. signal enhancement, % at 5 µM. 210,000 tested, 0.11% active;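 active means signal enhancement of 30% or more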;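 further: luminescence tracks abundance of the self-degrading MDM2-luciferase fusion protein; higher signal means inhibition of MDM2 E3 ligase activity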
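system = mammalian cells stably expressing self-ubiquitinating, self-degrading MDM2 E3–luciferase fusion | quantity = 2000 cells per well seeded | incubation = 4 h cell settling then 2 h compound exposure, 37 °C | signal = SteadyLite luminescence, 15 min reagent step | benchmarks = plate control and blank wells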
* hit, by the source's call; . = not tested or not shown; [ ] = another dose, or the depositor's remark. Not all compounds are listed; rates above refer to the full screens.

1	COc1ccc(Nc2ncc(C(=O)N3CCN(Cc4ccccc4)CC3)c3ccccc23)cc1
2	CC(NC(=O)c1ccccc1F)C(=O)O (stereo not given)
3	CCOc1ccc(OCC)c(NC(=O)CN(C)S(=O)(=O)c2cnc[nH]2)c1
4	Cc1cccc(Nc2nc3c(c(=O)n(C)c(=O)n3C)n2CC(O)CO)c1 (stereo not given)
5	COc1ccccc1-n1cc(C(=O)NCC(=O)N2CCN(c3ccccc3)CC2)c2ccccc2c1=O
Screen / compound no.	1	2	3	4	5
14-3-3 Bad inh	6[fluorescence artefact?]	-1	-3	-4	3
EBV gp42 block	-3	-7	-14	-23	-10
NCF1 inh	9	2	-12	-4	-1
Tb hexokinase	-34	6	4	-5	-11
Hck-Nef inh	1	-1	1	0	-1
zVAD death inh	0.2	0.3	-0.2	1.2	0.6
Mdm2 ligase inh	-8	-3	-6	4	-17

6	CC(=O)N(C)/C=C1\Sc2ccccc2C1=O
7	Cc1ccc(NC(C#N)c2ccccc2OCc2ccccc2)cc1 (stereo not given)
8	O=C(COC(=O)c1ccncc1)NC(=O)C1CCCCC1
9	CCCNC(=O)CC(NS(=O)(=O)c1ccc(Cl)cc1)c1ccco1 (stereo not given)
10	Cc1ccccc1-c1cc(C(=O)Nc2nc3c(s2)CCCC3)c2ccccc2n1
Screen / compound no.	6	7	8	9	10
14-3-3 Bad inh	-1	6	10	-2	-8
EBV gp42 block	-39	-4	-4	6	-14
NCF1 inh	-49	-11	0	-7	-38
Tb hexokinase	-2	-4	-3	-3	-13
Hck-Nef inh	3	1	1	1	0
zVAD death inh	0.2	0.0	-0.1	0.1	0.4
Mdm2 ligase inh	6	-8	-5	5	-19

11	O=C(CN1CCN(S(=O)(=O)c2ccc(Cl)cc2)CC1)Nc1ccc2c(c1)OCO2
12	O=S(=O)(NCCOCC(F)(F)F)c1ccc2oc3ccccc3c2c1
13	Cc1ccnc(NC(=S)NC(=O)c2ccco2)c1
14	CC(C)NC(=O)CC1Nc2c3ccccc3nc(=S)n2C1=O (stereo not given)
15	O=S(=O)(c1ccc(Cl)cc1)n1nnc2ccccc21
Screen / compound no.	11	12	13	14	15
14-3-3 Bad inh	-3	7	-16	2	48
EBV gp42 block	-21	-4	-1	-14	2
NCF1 inh	1	-4	7	-14	-6
Tb hexokinase	2	-4	-2	-6	1
Hck-Nef inh	1	-1	3	0	0
zVAD death inh	0.2	3.0	0.0	0.3	0.3
Mdm2 ligase inh	9	11	-12	1	4

Part of the list above in order of heavy-atom count, descending.
5	COc1ccccc1-n1cc(C(=O)NCC(=O)N2CCN(c3ccccc3)CC2)c2ccccc2c1=O
1	COc1ccc(Nc2ncc(C(=O)N3CCN(Cc4ccccc4)CC3)c3ccccc23)cc1
10	Cc1ccccc1-c1cc(C(=O)Nc2nc3c(s2)CCCC3)c2ccccc2n1
4	Cc1cccc(Nc2nc3c(c(=O)n(C)c(=O)n3C)n2CC(O)CO)c1 (stereo not given)
7	Cc1ccc(NC(C#N)c2ccccc2OCc2ccccc2)cc1 (stereo not given)
9	CCCNC(=O)CC(NS(=O)(=O)c1ccc(Cl)cc1)c1ccco1 (stereo not given)
14	CC(C)NC(=O)CC1Nc2c3ccccc3nc(=S)n2C1=O (stereo not given)
Screen / compound no.	5	1	10	4	7	9	14
14-3-3 Bad inh	3	6[fluorescence artefact?]	-8	-4	6	-2	2
EBV gp42 block	-10	-3	-14	-23	-4	6	-14
NCF1 inh	-1	9	-38	-4	-11	-7	-14
Tb hexokinase	-11	-34	-13	-5	-4	-3	-6
Hck-Nef inh	-1	1	0	0	1	1	0
zVAD death inh	0.6	0.2	0.4	1.2	0.0	0.1	0.3
Mdm2 ligase inh	-17	-8	-19	4	-8	5	1

8	O=C(COC(=O)c1ccncc1)NC(=O)C1CCCCC1
15	O=S(=O)(c1ccc(Cl)cc1)n1nnc2ccccc21
13	Cc1ccnc(NC(=S)NC(=O)c2ccco2)c1
6	CC(=O)N(C)/C=C1\Sc2ccccc2C1=O
2	CC(NC(=O)c1ccccc1F)C(=O)O (stereo not given)
Screen / compound no.	8	15	13	6	2
14-3-3 Bad inh	10	48	-16	-1	-1
EBV gp42 block	-4	2	-1	-39	-7
NCF1 inh	0	-6	7	-49	2
Tb hexokinase	-3	1	-2	-2	6
Hck-Nef inh	1	0	3	3	-1
zVAD death inh	-0.1	0.3	0.0	0.2	0.3
Mdm2 ligase inh	-5	4	-12	6	-3

Other entries.
16	O=C(/C=C/c1cccc([N+](=O)[O-])c1)NCCN1CCOCC1
17	COn1c(SCc2ccc(Cl)cc2)nc2ccccc2c1=O
18	CN(C)c1ccc(CNc2ncc(Br)cc2Br)cc1
19	CC(=O)N1CCc2cc(S(=O)(=O)CCC(=O)Nc3c(C)n(C)n(-c4ccccc4)c3=O)ccc21
20	CS(=O)(=O)N1CC(C(=O)NC2CCCC2)Oc2ccc(Cl)cc21 (stereo not given)
Screen / compound no.	16	17	18	19	20
14-3-3 Bad inh	12	-4	-5	-13[fluorescence artefact?]	-4
EBV gp42 block	-1	1	-5	-10	19
NCF1 inh	-13	-15	3	-17	0
Tb hexokinase	-8	5	6	7	2
Hck-Nef inh	0	0	-1	1	1
zVAD death inh	-0.2	0.0	-0.1	0.2	-0.1
Mdm2 ligase inh	-2	2	-4	-6	-5

21	O=C(CCSCCc1ccncc1)NCCCN1CCOCC1
22	COc1ccc(OCC(O)COc2ccc(C(=O)O)cc2)cc1 (stereo not given)
23	Cc1onc(-c2ccccc2Cl)c1C(=O)NCc1cccs1
24	COC(=O)Nc1ccc(=O)n(Cc2c(Cl)cccc2Cl)c1
25	CC(C)(C)n1ncc2c(=O)n(Cc3ccc(Cl)cc3Cl)cnc21
Screen / compound no.	21	22	23	24	25
14-3-3 Bad inh	9	-5	34	9	3
EBV gp42 block	-23	-5	-5	-2	-8
NCF1 inh	-15	3	-18	0	5
Tb hexokinase	-3	9	-1	-5	0
Hck-Nef inh	0	-1	0	2	2
zVAD death inh	1.1	0.0	0.7	0.3	1.2
Mdm2 ligase inh	-14	-19	-4	5	-8

26	Cc1ccc(Cn2c(C)cc3c(c2=O)C(c2cccs2)C(C#N)=C(N)O3)cc1 (stereo not given)
27	COc1ccc(NC(=O)CSc2ccc(-c3ccccn3)nn2)cc1OC
28	CC(C)(C)C1CCC2(CC1)C(C#N)=C(SCC(=O)Nc1ccccc1)NC(=O)C2C#N (stereo not given)
29	COc1cc(OC)c(OC)cc1CN(C)C(c1ccccc1)c1nnnn1-c1ccccc1C (stereo not given)
30	Cc1ccc(OCC(=O)c2c(O)c3ccccc3oc2=O)cc1C
Screen / compound no.	26	27	28	29	30
14-3-3 Bad inh	6	-6	4	49	74*
EBV gp42 block	-11	-7	1	3	-17
NCF1 inh	0	-15	-11	5	-24
Tb hexokinase	-18	5	-3	-17	5
Hck-Nef inh	3	0	-2	0	0
zVAD death inh	0.3	2.1	11	0.3	0.3
Mdm2 ligase inh	-4	-1	-21	-10	-5

Entries of single compounds from above.
Cc1ccc(OCC(=O)c2c(O)c3ccccc3oc2=O)cc1C as listed: 14-3-3 Bad inh: 74*; EBV gp42 block: -17; NCF1 inh: -24; Tb hexokinase: 5; Hck-Nef inh: 0; zVAD death inh: 0.3; Mdm2 ligase inh: -5
COc1ccc(NC(=O)CSc2ccc(-c3ccccn3)nn2)cc1OC as listed: 14-3-3 Bad inh: -6; EBV gp42 block: -7; NCF1 inh: -15; Tb hexokinase: 5; Hck-Nef inh: 0; zVAD death inh: 2.1; Mdm2 ligase inh: -1

Further entries follow:
31	CN1CCN(NC(=O)CN2C(=O)/C(=C/c3c(Cl)cccc3Cl)SC2=S)CC1
32	CCC(=O)N(c1ccc(F)cc1)C1C=CS(=O)(=O)C1 (stereo not given)
33	CS(=O)(=O)Nc1ccc([N+](=O)[O-])cc1Oc1ccccc1
34	COc1ccc(S(=O)(=O)NC(CC(=O)NC2CCCC2)c2ccco2)cc1 (stereo not given)
35	COc1ccccc1CNC(=O)CN1CCC(NC(=O)c2ccccc2F)CC1
Screen / compound no.	31	32	33	34	35
14-3-3 Bad inh	3	7[fluorescence artefact?]	10	-5	24[fluorescence artefact?]
EBV gp42 block	-2	-32	-7	-13	7
NCF1 inh	-127	-5	-7	-18	-10
Tb hexokinase	-9	3	-7	12	2
Hck-Nef inh	-1	0	-11	-1	0
zVAD death inh	0.0	-0.3	1.5	0.0	-0.1
Mdm2 ligase inh	-2	-16	.	-13	3
